Screening data (PubChem BioAssay)
CBX7 inh: blocks human CBX7 binding to H3K27me3 peptide | O95931 | AlphaScreen His6-CBX7 / biotin-H3K27me3 peptide binding; active compounds read low | normalised signal (fraction of DMSO) (test concentration not listed) | 66,000 tested, 1.1% active; in the data active = normalised signal below about 0.5;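 also: 100 nL library stock added to about 20 µL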
Target sequence (O95931 whole entry, looked up): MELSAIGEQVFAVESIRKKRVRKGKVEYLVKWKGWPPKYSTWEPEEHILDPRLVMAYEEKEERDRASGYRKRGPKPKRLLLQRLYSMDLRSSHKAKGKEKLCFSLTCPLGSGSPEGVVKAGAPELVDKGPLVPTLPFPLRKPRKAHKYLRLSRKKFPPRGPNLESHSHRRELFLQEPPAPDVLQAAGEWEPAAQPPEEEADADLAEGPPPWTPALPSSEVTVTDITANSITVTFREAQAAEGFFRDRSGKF
CBX7 inh z-score: further read-out of CBX7 inh, marked with its call; z-score; measured here: z-score of CBX7 signal; some inactives read as strong as hits; reference of the scale not given here;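 same signal on another scale; lower means less binding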
* hit, by the source's call. The list is partial (hit frequency here may not be typical).

SMILES | CBX7 inh | CBX7 inh z-score
O=C1Nc2cc(C(=O)N3CCC(N4CCCCC4)CC3)ccc2Nc2ccccc21 | 1.04 | 0.322
Fc1ccc(CSc2nc3ccccc3n2Cc2ccc(Cl)cc2Cl)cc1 | 1.1 | 5.11
CCOCCCNC(=O)C(CC)n1ncc2ccccc21 (stereo not drawn) | 1.03 | 0.763
CCOc1cccc(C(=O)N(Cc2ccccc2)C2CCS(=O)(=O)C2)c1 (stereo not drawn) | 0.979 | -0.694
Cc1ccc(-c2noc(-c3c(-c4ccccc4Cl)noc3C)n2)cc1 | 1.17 | 2.6
CCN(CC)CC#CCC(O)(c1ccccc1)c1ccccc1 | 0.876 | -1.34
Cc1cc(Cl)ccc1OCC(=O)N(Cc1cccs1)C1CCS(=O)(=O)C1 (stereo not drawn) | 0.98 | -0.253
O=C(CCn1nc(-c2ccccc2)ccc1=O)NC1CCCC1 | 1.26 | 0.522
Cc1cc(NC(=O)c2cc(-c3ccccc3)nc3ccccc23)no1 | 0.835 | -2.78
Cc1nc2ccccn2c(=O)c1C(=O)NCc1ccccc1Cl | 1.01 | 0.513
Cc1cc(NC(=O)c2c(-c3ccccc3Cl)noc2C)no1 | 0.986 | -0.211
COc1cc(C2OCC3(COC(C)=O)C(C)C=C(C)C2C3C)ccc1OC(C)=O (stereo not drawn) | 0.823 | -1.11
CC(C)CCn1c(/C=C/c2ccccc2)nc2ccccc21 | 1.6 | 31.1
O=C1CC(c2c[nH]c3ccccc23)C(=O)N1c1ccccc1 (stereo not drawn) | 0.926 | -0.17
CC(C)(C)c1ccc(C(=O)Nc2ccc3oc(-c4ccc(Cl)cc4)nc3c2)cc1 | 1.03 | 0.665
COc1ccc(N2C(=O)CC(Cc3cc(C)cc(C)c3)C2=O)cc1 (stereo not drawn) | 0.994 | -0.124
Cc1nc2ccc(S(=O)(=O)NC(C(=O)NC3CCN(Cc4ccccc4)CC3)C(C)C)cc2s1 (stereo not drawn) | 0.9 | -1.56
CCCC(CCC)C(=O)Nc1c2c(nc3c1CCC3)CCCC2 | 0.979 | -0.243
CC(=O)Nc1cccc(-c2nc3cc(C)c(C)cc3o2)c1C | 0.972 | -0.374
CC1(C)CC(=O)C2=C(C1)NC(=O)CC2c1ccccc1OCc1ccccc1 (stereo not drawn) | 0.931 | -0.875
Cc1ccc2nc(-c3cccc(NC(=O)c4cc5ccccc5o4)c3)oc2c1 | 1.26 | 1.88
CN(C)c1oc(-c2ccccc2Cl)nc1P(=O)(c1ccccc1)c1ccccc1 | 1.12 | 0.516
Cc1ccc(CNC(=O)CCCc2cn(C)c3ccccc23)cc1 | 1.16 | 1.25
Cc1cc(N2CC(C)CC(C)C2)nc2ccc(NC(=O)CCC(=O)NCCN(C)C)cc12 (stereo not drawn) | 1.06 | 2.84
COc1cccc(/C=C/c2ccc3cccc(OCc4ccccc4)c3n2)c1OC | 1.52 | 6.22
Next section:
SMILES | CBX7 inh | CBX7 inh z-score
O=C(CSc1nccn1-c1cccc(Cl)c1)Nc1cccc2ccccc12 | 0.589 | -3.22
CNC(=O)Cn1nc(-c2ccccc2)c2ccccc2c1=O | 1.01 | 0.44
O=C(NCC1CCCO1)C1CCN(C(=O)c2cnn(-c3ccccc3)c2-n2cccc2)CC1 (stereo not drawn) | 0.907 | -0.213
CC1(C)CC(CC(=O)O)(c2ccc(F)cc2)CCO1 (stereo not drawn) | 1.02 | 0.173
OC(c1ccccc1)(c1ccccc1)C1CCN(c2ccc3nnc(-c4ccc(F)cc4)n3n2)CC1 | 0.788 | -4.8
Cc1ccc2cccc(NC(=O)C34CC5CC(CC(C5)C3)C4)c2n1 | 1.24 | 1.73
COc1ccc(CCNC(=O)c2ccc3c(c2)N(Cc2ccccc2)C(=O)CS3=O)cc1OC (stereo not drawn) | 1.09 | 1.55
CC1CN(CC(O)COc2ccccc2C(C)C)CC(C)O1 (stereo not drawn) | 1.04 | 1.42
c1ccc(Nc2c(-c3ccccn3)nc3ccccn23)cc1 | 0.239* | -30.7*
CC(=O)Nc1c2c(nn1-c1ccc(C)cc1)CSC2 | 1.02 | 0.0165
O=C(O)c1ccc(-n2c(/C=C\c3ccccc3)nc3ccccc3c2=O)cc1 | 1.03 | 1.31
COc1ccc(NC(=O)Cc2c(C(=O)O)[nH]c3ccc(Cl)cc23)cc1OC | 0.973 | -0.214
COc1ccc(N2CC(C(=O)NCCc3ccc(OC)c(OC)c3)CC2=O)cc1 (stereo not drawn) | 0.963 | -0.87
CCN(CC)C(=O)Cn1cnc2sc(C(=O)Nc3ccc4c(c3)OCO4)c(C)c2c1=O | 1.02 | 0.759
Cc1ccc(CSc2nc3ccncc3n2CC(=O)Nc2ccc(C)c(F)c2)cc1 | 0.828 | -0.693
Cc1ccc(NC(=O)CSc2nc3c(c(=O)[nH]2)CCC3)c(Cl)c1 | 0.962 | -0.495
O=C1CSC(c2ccccn2)N1c1ccccc1 (stereo not drawn) | 1.09 | 0.921
COc1ccc(-n2nc(C(=O)NCC(=O)NCc3ccc(F)cc3)c3ccccc3c2=O)cc1OC | 0.921 | -1.52
CCOc1ccc(N(C)S(=O)(=O)c2ccc3[nH]cc(C(=O)NCc4ccccc4)c(=O)c3c2)cc1 | 1.02 | 0.235
CCc1ccc(N(CC(=O)NC2CCCCC2)S(=O)(=O)c2c(C)noc2C)cc1 | 1.2 | 3.67
COc1ccc(OC)c(NC(=O)CSc2nnc(CNC(=O)COc3ccc(Cl)cc3)o2)c1 | 1.02 | 0.367
O=C(CCn1nc(-c2ccc(Cl)cc2)ccc1=O)NCc1ccc2c(c1)OCO2 | 1.01 | 0.384
Cc1cccc(-c2cc(C(=O)Nc3nc(-c4ccccc4)c(C)s3)c3ccccc3n2)c1 | 1.54 | 1.89
COc1ccc(CCNC(=O)C2CC(=O)N(CCc3ccccc3)C2)cc1OC (stereo not drawn) | 1.01 | 0.242
O=C(NC1CCCCC1)C(c1ccc(Cl)cc1)N1CCCCC1 (stereo not drawn) | 1.04 | 1.84

Reprinted from the part before: 2 entries, followed by the next part.
SMILES | CBX7 inh | CBX7 inh z-score
COc1ccc(CCNC(=O)C2CC(=O)N(CCc3ccccc3)C2)cc1OC (stereo not drawn) | 1.01 | 0.242
O=C(NC1CCCCC1)C(c1ccc(Cl)cc1)N1CCCCC1 (stereo not drawn) | 1.04 | 1.84
COc1ccc(C2CC(=O)NC3=C2C(=O)CC(C)(C)C3)cc1Cl (stereo not drawn) | 1.02 | 0.222
Cc1ccc(NS(=O)(=O)c2cnc[nH]2)c(C)c1 | 0.832 | -2.17
Cc1cc(Nc2cccc(C(F)(F)F)c2)nc(NCc2ccccc2)n1 | 1.23 | 0.273
CC(=O)Nc1ccc(NC2c3ccccc3C(=O)N2Cc2ccccc2)cc1 (stereo not drawn) | 0.935 | -0.649
COc1cccc(/C=C/c2cc(C(F)(F)F)[nH]c(=O)n2)c1OC | 1.1 | 2.58
O=C(NCc1ccccn1)C(=O)Nc1cccc(Br)c1 | 1.03 | 0.778
Cc1ccc(N(C)C(=O)Cn2nc(Cc3ccncc3)c3ccccc3c2=O)cc1C | 1.02 | 0.619
COCCCNC(=O)c1cnn2c(C(F)(F)F)cc(-c3cccs3)nc12 | 1.03 | 0.222
Cn1c(SCC(=O)Nc2nccs2)nnc1-c1c[nH]c2ccccc12 | 0.959 | -0.701
O=C(NC(c1ccccc1)c1ccccc1)C(c1ccc(Cl)cc1)N1CCOCC1 (stereo not drawn) | 1.02 | 0.611
CCOc1ccc(Nc2cc(C(=O)NCCc3ccccc3)c3ccccc3n2)cc1 | 0.973 | -0.743
Cc1cc(OCC(O)CNC(C)c2ccccc2)ccc1Cl (stereo not drawn) | 1.11 | 1.64
O=C(NCc1ccccn1)c1ccc2c(c1)N(Cc1ccccc1F)C(=O)c1ccccc1S2=O (stereo not drawn) | 0.994 | -0.144
CC(CNC(=O)c1cc2sc(Cl)cc2n1C)c1ccccc1 (stereo not drawn) | 0.975 | -1.02
CCCCN1C(=O)C(O)(CC(=O)c2ccc(C)cc2)c2ccccc21 (stereo not drawn) | 0.889 | -3.21
Cc1cc(N2CCC(C)CC2)nc2ccc(NC(=O)COc3ccc(Cl)cc3)cc12 | 1.01 | 0.141
Cc1cc(NC(=O)c2sc3ccccc3c2Cl)no1 | 1.06 | 0.896
Cc1ccc(S(=O)(=O)c2nc(-c3cccs3)oc2SCC(=O)NCC2CCCO2)cc1 (stereo not drawn) | 0.958 | -1.06
COc1ccc(NC(=O)Cn2cnc3ccccc3c2=O)c(OC)c1 | 1.04 | 1.39
CCOC(=O)C1CCN(S(=O)(=O)c2ccc3c(c2)CC(=O)N3)CC1 | 1.08 | 0.84
CCn1cc(C(=O)N(C)Cc2ccccc2)c(=O)c2ccc(C)nc21 | 1.08 | 0.849
O=S(=O)(c1ccc(Cl)cc1)c1nc(/C=C/c2ccccc2)oc1NCc1ccco1 | 0.776 | -0.97
O=C(NCCC1=CCCCC1)c1cc2c(s1)-c1ccccc1OC2 | 1.05 | 1.5
CN(CCNC(=O)c1cc2c(s1)CS(=O)(=O)C2)C1CCCCC1 | 1.04 | 1.18
O=C(C1CC1)N1CCc2cc(S(=O)(=O)Nc3ccc(Br)cc3)ccc21 | 1.02 | 0.429
Further records:
SMILES | CBX7 inh | CBX7 inh z-score
CCN(CC)C1CCCCC1NS(=O)(=O)c1ccc(Cl)cc1 (stereo not drawn) | 1.02 | 0.636
COc1ccccc1N1CCN(c2ncc(C(=O)N3CCC(C)CC3)c3ccccc23)CC1 | 0.803 | -2.85
CCOc1ccc2nc(N3CCC(C(=O)NCc4cccnc4)CC3)sc2c1 | 0.893 | -0.472
O=C(CSc1nc2ccccc2o1)Nc1ncccn1 | 0.968 | -0.438
CC1CCCC(NC(=O)C2CCN(C(=O)c3cc4sccc4n3C)CC2)C1C (stereo not drawn) | 1.16 | 2.96
Cc1ccc(-c2nc3ncccc3o2)cc1NC(=O)COc1ccc(C(C)(C)C)cc1 | 0.949 | -2.3
CCc1cccc(NC(=O)C2CCN(S(=O)(=O)c3cccc4nonc34)CC2)c1 | 0.996 | -0.00555
O=C(NCc1ccc2c(c1)OCO2)C1CCC(=O)N1Cc1ccc(F)cc1 (stereo not drawn) | 1.07 | 1.79
CCCOc1ccc(C2C(=O)N(C3CCCCC3)CC(=O)N2Cc2ccc3c(c2)OCO3)cc1OC (stereo not drawn) | 0.907 | -0.0931
CC1CCN(c2nc3ccc(C(=O)NCCCN(C)C4CCCCC4)cc3s2)CC1 | 1.58 | 5.4
Cc1ccccc1-c1nc(CS(=O)(=O)CC(=O)NCc2ccc(Cl)cc2)c(C)o1 | 0.989 | -0.0896
COc1ccc(-c2n[nH]c(C)c2-c2ccccc2)c(O)c1C | 0.736 | -4.1
O=C1CC(c2ccc(S(=O)(=O)NCc3ccccc3Cl)cc2)CN1 (stereo not drawn) | 0.934 | -1.06
Cc1ccc(-n2c(Cc3cccn3C)nnc2SCC(=O)Nc2cccc(C(F)(F)F)c2)cc1 | 0.985 | -0.362
CCc1nnc(NC(=O)CSc2nccn2-c2cccc(OC)c2)s1 | 0.979 | -0.805
COc1ccc2[nH]cc(S(=O)(=O)c3ccc(F)cc3)c(=O)c2c1 | 1.14 | 2.02
O=C(C1CC(=O)N(c2ccc(F)c(Cl)c2)C1)N1CCCCC1 (stereo not drawn) | 1.12 | 2.37
Cc1ccc(NC(=O)CCc2nnc3ccc(N4CCN(C5CCCCC5)CC4)nn23)cc1 | 0.915 | -2.33
Cc1ccc(-c2n[nH]c(=O)c3ccccc23)cc1S(=O)(=O)NCCO | 1.02 | 0.566
COc1cccc(CNC(=O)Cc2cn(C)c3ccccc23)c1 | 0.977 | -0.785
COc1cccc(N2C(=O)CC(N3CCN(C/C=C/c4ccccc4)CC3)C2=O)c1 (stereo not drawn) | 0.911 | -1.37
COc1cccc(CNS(=O)(=O)c2ccc3c(c2)CCN3C(C)=O)c1 | 0.97 | -0.985
CCOC(=O)C1CCN(c2c(NCCN3CCOCC3)c(=O)c2=O)CC1 | 1.01 | 0.716
Cc1ccccc1Nc1cc(C)c2ccc(O)cc2n1 | 0.991 | -0.172
COCCNC(=O)c1nn2c(c1Br)NC(c1cccs1)CC2C(F)(F)F (stereo not drawn) | 1.14 | 1.19
COc1ccc(-c2nc(CSCC(=O)NCCCOC(C)C)c(C)o2)cc1 | 1.17 | 1.48
COc1ccc(-c2cc(C(=O)N3CCCCCC3)no2)cc1OC | 1.26 | 2
CCN(CC)CCNC(=O)CS(=O)(=O)Cc1nc(-c2cccc(OC)c2)oc1C | 1.02 | 0.653
O=C(CN1C(=O)COc2cc(S(=O)(=O)N3CCCC3)ccc21)NCc1ccccc1Cl | 1.03 | 0.564
CCOc1ccccc1NC(=O)c1cc2c(s1)-c1c(C)cccc1OC2 | 1.61 | 21.1

Of the compounds above, eleven contain a thiophene ring, fused or not:
SMILES | CBX7 inh | CBX7 inh z-score
Cc1cc(Cl)ccc1OCC(=O)N(Cc1cccs1)C1CCS(=O)(=O)C1 (stereo not drawn) | 0.98 | -0.253
CCN(CC)C(=O)Cn1cnc2sc(C(=O)Nc3ccc4c(c3)OCO4)c(C)c2c1=O | 1.02 | 0.759
COCCCNC(=O)c1cnn2c(C(F)(F)F)cc(-c3cccs3)nc12 | 1.03 | 0.222
CC(CNC(=O)c1cc2sc(Cl)cc2n1C)c1ccccc1 (stereo not drawn) | 0.975 | -1.02
Cc1cc(NC(=O)c2sc3ccccc3c2Cl)no1 | 1.06 | 0.896
Cc1ccc(S(=O)(=O)c2nc(-c3cccs3)oc2SCC(=O)NCC2CCCO2)cc1 (stereo not drawn) | 0.958 | -1.06
O=C(NCCC1=CCCCC1)c1cc2c(s1)-c1ccccc1OC2 | 1.05 | 1.5
CN(CCNC(=O)c1cc2c(s1)CS(=O)(=O)C2)C1CCCCC1 | 1.04 | 1.18
CC1CCCC(NC(=O)C2CCN(C(=O)c3cc4sccc4n3C)CC2)C1C (stereo not drawn) | 1.16 | 2.96
COCCNC(=O)c1nn2c(c1Br)NC(c1cccs1)CC2C(F)(F)F (stereo not drawn) | 1.14 | 1.19
CCOc1ccccc1NC(=O)c1cc2c(s1)-c1c(C)cccc1OC2 | 1.61 | 21.1
